# MLL AF4-AF9 inh = blocks AF4 peptide binding to human AF9; P42568; AlphaScreen, biotin-AF4 peptide binding to FLAG-AF9; inhibition, % at 10 µM; 350,000 compounds, 0.47% hits;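 active = every replicate reaching a set inhibition limit, whatever the replicate mean, cut at about 25% in these data; inconclusive = mean inhibition reaches that limit but some replicates miss it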;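 also: 0% = plate neutral control median and 100% = total signal loss; the record names both 10 and 1 µM as test concentration; the first replicate is given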
# Target sequence (P42568 whole entry, looked up): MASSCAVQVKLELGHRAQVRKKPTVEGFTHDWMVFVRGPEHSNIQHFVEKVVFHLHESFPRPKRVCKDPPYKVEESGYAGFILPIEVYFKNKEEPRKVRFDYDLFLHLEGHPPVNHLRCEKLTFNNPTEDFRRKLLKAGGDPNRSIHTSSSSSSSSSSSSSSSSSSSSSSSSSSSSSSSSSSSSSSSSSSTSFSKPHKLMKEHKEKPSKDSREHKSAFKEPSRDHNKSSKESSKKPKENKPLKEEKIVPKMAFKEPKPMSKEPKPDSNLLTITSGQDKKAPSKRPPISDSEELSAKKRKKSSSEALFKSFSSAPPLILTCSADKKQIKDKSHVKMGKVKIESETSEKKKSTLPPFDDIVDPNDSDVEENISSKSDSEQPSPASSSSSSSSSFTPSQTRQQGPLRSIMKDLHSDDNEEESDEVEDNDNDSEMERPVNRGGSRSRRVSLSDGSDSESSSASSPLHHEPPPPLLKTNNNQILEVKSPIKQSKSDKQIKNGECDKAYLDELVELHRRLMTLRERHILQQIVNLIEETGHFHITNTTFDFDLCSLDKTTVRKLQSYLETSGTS
# ALR H2O2 inh = blocks human ALR sulfhydryl oxidase activity; purified ALR, DTT oxidation, H2O2 HRP-luminol luminescence; inhibition, % (test concentration not listed); 290,000 compounds, 3.8% hits; P55789;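 active = mean and each replicate at 75% or more; inconclusive = only one of the two met; inactive = neither met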;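 also: stock transfer was 7.5 nL into about 7.5 µL; 0% = neutral wells and 100% = wells with inactivated enzyme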
# Target sequence (P55789 whole entry, looked up): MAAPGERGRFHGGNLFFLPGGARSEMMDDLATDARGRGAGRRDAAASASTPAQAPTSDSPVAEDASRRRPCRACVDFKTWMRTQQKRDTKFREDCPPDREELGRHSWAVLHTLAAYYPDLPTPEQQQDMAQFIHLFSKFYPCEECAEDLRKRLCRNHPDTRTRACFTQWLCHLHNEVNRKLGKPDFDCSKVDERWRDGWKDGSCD
# Ecoli rRNA inh = selective bacterial rRNA inhibition in E. coli. E. coli WT GFP vs humanized-ribosome RFP mutants, fluorescence, 24 h; hits give low values; DMSO median 0, no signal -100. GFP signal change (wild-type ribosome), % (concentration not given with the values). 350,000 compounds, 1.6% hits. AID 720706;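 active = significant combined selectivity score with lowered wild-type GFP, culture density cut under 30%, mutant RFP and density less affected; inactive = any of these conditions unmet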; also: one replicate is shown; some compounds called inactive have numbers as strong as hits
# FGF22 binding = FGF22 (human) thermal shift binding. Q9HCT0. recombinant FGF22 thermal shift, SYPRO orange fluorescence; percent of sucrose octasulfate shift, DMSO zero. calls only at 9.99 µM. 340,000 compounds, 1.5% hits;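 active = melting point raised past a set limit in the mean and every replicate; inconclusive = no clear call; three in four hits are not shown here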
# Target sequence (Q9HCT0 whole entry, looked up): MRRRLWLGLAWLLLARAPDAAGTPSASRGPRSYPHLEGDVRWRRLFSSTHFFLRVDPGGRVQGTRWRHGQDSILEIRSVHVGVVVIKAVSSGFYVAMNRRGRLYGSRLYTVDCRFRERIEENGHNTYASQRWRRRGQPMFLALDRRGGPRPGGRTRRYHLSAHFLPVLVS
# HNF4A DNA FP = change in binding of human HNF4 alpha to DNA; P41235; HNF4a-FITC DNA binding, fluorescence polarization, 1 h; activity change, % at 10 µM; 360,000 compounds, 0.3% hits; in the data active = activity change above about 30%, passing the limit was not always enough;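 also: controls were the assay level and a saturating level of protein; the project sought stronger binding though the title names inhibitors; some compounds called inactive have numbers as strong as hits; positive values seem to mean higher polarization but the record does not say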
# Ecoli growth = inhibitors of Escherichia coli growth; OD600, 23 h; hits give low values; OD600 absorbance (no concentration beside the values); 330,000 compounds, 0.21% hits;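 active = OD600 absorbance below the run mean of sample wells minus 3.6 SD, in any replicate, cut at about 0.56 in these data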;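 also: stock transfer was 300 nL into about 60 µL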
# Vif A3G = HIV-1 Vif–A3G interaction blockers – biochemical, TR-FRET, GST-Vif 1-94, biotin-A3G peptide, dose response retest, primary screen (AID 1117319); TR-FRET GST-Vif / biotin-A3G peptide binding; higher % means a stronger effect; test concentration not given here; strong numbers were not always called active; one-dose inhibition, %; IC50 in µM for titrated hits; 260,000 compounds, 0.57% hits;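 active = above the screen mean plus three standard deviations and confirmed in dose response; inconclusive = results disagree or hit not tested in dose response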;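 also: Vif residues 1-94 fused to GST binding biotinylated APOBEC3G peptide 110-148; 0% = full assay without inhibitor and 100% = GST in place of GST-Vif; retest series ran down from 100 µM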
# Ecoli rRNA inh OD600 = second read-out of Ecoli rRNA inh, no call of its own (marks repeat the call); OD600 change, %; measured here: OD600 growth;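 optical density of the mix in the first replicate; 0 = DMSO median and -100 = no signal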
# Ecoli rRNA inh RFP = second read-out of Ecoli rRNA inh, no call of its own (marks repeat the call); RFP signal change, %; measured here: RFP humanized mutant strains;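 first replicate; 0 = DMSO median and -100 = no signal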
# Active calls of the source: *; i = inactive; ? = inconclusive; nt = not tested or not shown. These rows are one share of the data; count on the stated rates, not on these rows.
SMILES,MLL AF4-AF9 inh,ALR H2O2 inh,Ecoli rRNA inh,Ecoli rRNA inh OD600,Ecoli rRNA inh RFP,FGF22 binding,HNF4A DNA FP,Ecoli growth,Vif A3G
CCNC(=O)C[C@@H]1CC[C@@H]2[C@@H](COc3ccc(NC(=O)c4ccc(F)c(F)c4)cc3C(=O)N2C)O1,0.0,nt,-2.8,-4.0,1.7,i,nt,nt,nt
CCOC(=O)CSc1nccc(N(C)C)c1C#N,nt,nt,nt,nt,nt,nt,-1.3,0.712,-3.8%
O=C(C[C@H]1CC[C@H]2[C@@H](COC[C@H](O)CN2S(=O)(=O)c2ccccc2)O1)Nc1ccccc1,-0.8,nt,-4.2,-3.0,-5.0,i,nt,nt,nt
COc1ccc2c3c(n(C)c2c1)[C@H](CO)N(Cc1nccs1)CC31CCN(CC2CCCC2)CC1,?,nt,-0.9,-3.9,-1.4,i,nt,nt,nt
Cc1cc(C)nc(-n2nc(C)c(C3(O)C(=O)Nc4ccccc43)c2N)n1 (centres undefined),nt,-12.6,nt,nt,nt,nt,3.2,0.753,3.8%
O=C(NCC[C@@H]1CC[C@@H](NS(=O)(=O)c2ccc(F)cc2)[C@H](CO)O1)c1ccc2c(c1)OCO2,-1.0,nt,-0.5,-0.7,0.8,i,nt,nt,nt
O=C(CSc1nnc(-c2cccnc2)n1C1CCCCC1)NC1CCCC1,nt,-3.1,nt,nt,nt,nt,1.5,0.718,25.8%
Cc1ccc(S(=O)(=O)N2[C@H](CC(=O)c3ccc(Cl)c(Cl)c3)OC[C@@H]2C)cc1,nt,nt,-7.8,-14.3,2.1,i,-4.0,nt,nt
CC1CCC(NC(=O)C(=O)Nc2ccc3c(c2)OCO3)CC1 (centres undefined),0.9,-5.1,10.9,4.5,-3.8,nt,-1.5,0.696,nt
Cc1ccc(CC2C(=O)N(c3ccc(F)cc3)C(=O)C2C)cc1 (centres undefined),0.9,1.2,-6.9,-3.6,-1.7,i,-4.4,0.649,-1.3%
C/C(=N\Nc1ccc([N+](=O)[O-])cc1)c1ccc(O)cc1,14.4,99.4*,-58.9,-78.0,-14.8,i,50.8*,nt,24.4%
CCOC(=O)CC(NC(=O)CCc1c(C)nc2ncnn2c1C)c1ccc(C)cc1 (centres undefined),-7.8,-0.5,4.9,7.2,3.6,i,0.9,0.683,-16.2%
Cc1ccc(S(=O)(=O)N(C)C[C@H]2Oc3ccc(NC(=O)Nc4ccc5c(c4)OCO5)cc3C(=O)N([C@H](C)CO)C[C@@H]2C)cc1,7.2,nt,-0.4,3.0,1.6,i,nt,nt,nt
NC(=O)CSc1nnc(-c2ccc(S(=O)(=O)N3CCCC3)cc2)o1,-0.8,-1.5,10.2,11.2,1.3,i,3.5,0.683,8.1%
O=C1CCC2(C(=O)O)Sc3ccccc3N12 (centres undefined),nt,nt,nt,nt,nt,nt,1.5,0.688,-4.0%
Nn1c(SCC(=O)NCC2CCCO2)nnc1-c1ccc(OC(F)F)cc1 (centres undefined),-1.2,-7.5,0.9,-2.3,-4.6,i,-1.6,0.65,-2.4%
c1cc2c(cc1-n1cnnn1)OCO2,-0.5,-5.5,5.2,-0.2,-5.6,i,1.7,0.68,-1.6%
Cc1cc(-c2nnc(SCC(=O)Nc3nccs3)o2)no1,-23.9,88.5*,4.0,3.5,5.3,i,-1.7,0.701,24.7%
COCCN(C(=O)c1ccc(-c2ccc(Cl)cc2)o1)c1c(N)n(Cc2ccccc2)c(=O)[nH]c1=O,-11.2,19.7,7.7,7.4,2.0,i,0.5,0.681,-1.3%
CCCOc1cc(CC(=O)NCc2ccco2)ccc1OC,nt,2.6,nt,nt,nt,nt,-5.8,0.727,1.4%
N#CC1=C(Nc2ccccc2Cl)SC(c2ccncc2)NC1=O (centres undefined),10.8,nt,-9.7,1.0,-4.9,i,-1.0,nt,nt
CCOC(=O)c1ccc(N=C2SC(C(=O)Nc3ccc(C(=O)O)cc3)CC(=O)N2Cc2cccs2)cc1 (centres undefined),4.3,48.0,8.5,7.5,-0.8,i,-4.4,0.747,-3.2%
CC(C)c1cc(NC(=O)CSc2nnc(-c3ccccc3F)n2C)on1,nt,-1.1,nt,nt,nt,nt,3.2,0.67,-1.5%
Cc1noc(C)c1S(=O)(=O)Nc1ccc2c(c1)C(=O)N([C@@H](C)CO)C[C@H](C)[C@@H](CN(C)S(=O)(=O)c1cn(C)cn1)O2,-0.2,nt,3.0,13.6,-1.5,i,nt,nt,nt
CCCNC(=O)C[C@H]1C[C@@H]2c3cc(NC(=O)NC4CCCCC4)ccc3O[C@@H]2[C@@H](CO)O1,1.8,nt,-3.1,-7.1,0.1,i,nt,nt,nt
O=C(N[C@@H]1CC[C@@H](CCNC(=O)c2ccccc2F)O[C@@H]1CO)c1cnccn1,0.5,nt,1.4,2.2,1.8,i,nt,nt,nt
CCCCCC/C(C)=C1/SC(=S)NC1=O,nt,11.2,nt,nt,nt,nt,21.5,0.614,1.5%
COc1cccc(CNn2cnnc2)c1OCc1ccc(F)cc1,nt,-21.3,nt,nt,nt,nt,-1.4,0.726,?
O=C(NCc1ccc2c(c1)CCO2)Nc1cccc(C(F)(F)F)c1,-3.2,-3.1,1.3,2.0,4.5,i,6.2,0.66,-7.2%
CCOc1ccc(S(=O)(=O)NCCCn2ccnc2)cc1NC(C)=O,-5.4,-3.9,11.0,13.9,-0.6,i,0.6,0.673,nt
O=C(NC(=S)NCc1ccncc1)c1ccccc1,-0.9,93.7*,13.1,4.6,-2.3,i,0.2,0.694,8.0%
COC(=O)C1=C(C)NC(C)=C(C(=O)OCC(C)C)C1c1ccccc1[N+](=O)[O-] (centres undefined),37.9*,5.6,nt,nt,nt,i,2.9,nt,nt
CN1C2CCC1CC(NS(=O)(=O)c1ccc(C#N)cc1)C2 (centres undefined),-2.0,-2.9,3.7,9.0,0.5,i,4.6,0.7,0.9%
O=C(NCCc1ccncc1)[C@@H]1N[C@@H]2c3ccc(/C=C/c4ccccc4)c(=O)n3C[C@@H]2[C@H]1CO,-1.4,nt,-1.0,3.2,1.0,i,nt,nt,nt
O=C(CSc1cccc[n+]1[O-])NCC1CCCCC1,-1.4,-1.9,-5.2,-6.0,-2.1,i,0.6,0.659,7.9%
Cc1ccc(C)c(NC(=O)c2cc3ccccn3n2)c1,-3.4,0.3,-2.2,1.5,-7.2,i,-1.1,0.656,-3.4%
COc1cccc(S(=O)(=O)N(C)C[C@@H]2Oc3ncc(C#Cc4ccc(F)cc4)cc3C(=O)N([C@H](C)CO)C[C@@H]2C)c1,1.6,nt,7.5,3.5,-0.4,i,nt,nt,nt
CSc1ccccc1NS(=O)(=O)c1cccc2nonc12,-1.1,37.1,0.2,-6.2,-2.9,i,-0.1,0.731,12.7%
COc1ccccc1N1CCN(/N=C/c2ccc(OC)c(OC)c2OC)CC1,15.0,25.7,20.3,7.0,-0.1,i,-1.2,nt,4.6%
CCOC(=O)Cc1nnc(Nc2ccc(C(=O)NC)cc2)c2ccccc12,-1.6,-3.3,-8.8,-5.4,36.0,i,1.0,nt,16.9%
C=CCn1cnc2sc(C(=O)Nc3ccccc3OC)c(C)c2c1=O,0.1,0.2,10.1,8.9,2.6,i,0.9,0.713,-1.2%
C[C@H]1CN([C@@H](C)CO)C(=O)c2cc(C3=CCCCC3)cnc2O[C@H]1CN(C)C(=O)c1ccc(F)cc1,-1.1,nt,3.7,13.4,0.9,i,nt,nt,nt
O=C(c1cccnc1)N1CCC2CC1c1c(Cl)cccc12 (centres undefined),1.4,nt,nt,nt,nt,i,-0.8,nt,-0.8%
Cc1ccccc1CNC(=O)c1ccc2sc([C@H]3C[C@H](O)[C@@H](CO)O3)nc2c1,3.4,nt,-0.5,2.4,1.3,i,-1.1,nt,nt
COc1ccc(C(=O)/C=C/c2ccc(OC)c(COc3ccccc3F)c2)cc1,nt,nt,nt,nt,nt,nt,4.2,0.713,18.4%
COc1ccc(C(=O)N2CCN(S(=O)(=O)N3CCOCC3)CC2)cc1OC,nt,-1.0,nt,nt,nt,nt,-4.0,0.802,1.5%
C=CCn1c(O)c(N=NC(=S)Nc2ccc(OC)cc2)c2ccccc21,nt,-5.5,nt,nt,nt,nt,2.0,0.694,nt
O=C(Cc1cccs1)Nc1ccc(F)c(F)c1,-0.6,6.1,0.7,-3.5,2.8,i,-1.6,0.621,7.5%
O=C(COC(=O)c1ccc[nH]c1=O)NCCc1ccc(Cl)cc1Cl,nt,-4.8,-14.0,-10.4,-4.4,i,5.1,0.719,-2.9%
CCCN1CCN(C(c2cc3cc4c(cc3[nH]c2=O)OCO4)c2nnnn2C(C)(C)C)CC1 (centres undefined),nt,-3.8,nt,nt,nt,nt,0.1,0.716,11.3%
Cc1ccc(S(=O)(=O)Nc2nccs2)cc1[N+](=O)[O-],-15.9,-5.2,10.9,3.6,2.5,i,-2.3,0.662,4.5%
NC(=O)c1ccccc1N1CCCCC1,-0.8,4.2,7.7,0.5,0.1,i,5.7,0.613,16.1%
C[C@H]1CN([C@@H](C)CO)C(=O)c2cccc(N(C)C)c2O[C@@H]1CN(C)Cc1ccc(Cl)c(Cl)c1,0.4,nt,-1.6,-4.0,2.6,i,nt,nt,nt
COCC(=O)N1C[C@@H]2[C@H](c3ccccc31)[C@H](CO)N2C(=O)C1CC1,0.3,nt,6.3,0.7,1.1,i,nt,nt,nt
COc1ccc(C(=O)Cn2c(=O)oc3ccc(C)cc32)cc1,-2.1,-15.7,5.9,1.9,4.8,i,2.7,0.657,0.4%
O=S(=O)(NCc1ccc(F)cc1)c1cc(Br)ccc1Br,-1.0,-2.9,-18.0,-11.8,-22.4,i,-2.6,0.678,nt
CC1CCCCC1NC(=O)CSc1nnc(C(F)(F)F)n1C (centres undefined),-2.6,nt,9.0,21.4,1.0,i,-3.1,nt,-2.2%
O=C(CCNC(=O)c1ccc(Cl)cc1)NCC(c1ccco1)N1CCCCC1 (centres undefined),-10.7,0.8,4.3,9.1,8.9,nt,2.4,0.621,-1.2%
COc1ccc(S(=O)(=O)Nc2ccc3c(c2)C(=O)N([C@H](C)CO)C[C@@H](C)[C@@H](CN(C)S(=O)(=O)c2ccc(F)cc2)OCCCC[C@H](C)O3)cc1,-3.3,nt,-2.1,4.4,-0.3,i,nt,nt,nt
O=C(NCCC1=CCCCC1)c1cc(S(=O)(=O)N2CCOCC2)ccc1Cl,4.9,-12.0,4.8,5.2,-1.9,i,-1.6,0.658,-7.0%

# Further results follow:
SMILES,MLL AF4-AF9 inh,ALR H2O2 inh,Ecoli rRNA inh,Ecoli rRNA inh OD600,Ecoli rRNA inh RFP,FGF22 binding,HNF4A DNA FP,Ecoli growth,Vif A3G
CCN(CC)C(=O)Cn1cc(C(=O)C(=O)N2CCN(Cc3ccc4c(c3)OCO4)CC2)c2ccccc21,2.6,-12.8,-1.3,-3.2,2.9,i,-1.5,0.678,0.6%
COc1ccccc1NCC(=O)NC(=O)NC1CCCCC1,-3.2,1.7,1.2,10.0,-2.6,i,0.1,0.674,-3.9%
CC(C)NC(=O)N1[C@@H](CO)[C@@H]2c3ccccc3NC[C@@H]21,-22.3,nt,3.1,-1.2,-1.8,i,nt,nt,nt
COc1cc(OC)cc(C(=O)NCC(=O)OCc2csc(-c3ccccc3)n2)c1,nt,-27.0,nt,nt,nt,nt,2.2,0.657,-5.6%
C=C(C)c1cccc(C(C)(C)NC(=O)NCc2ccc(OC)cc2)c1,-0.2,-4.2,8.4,8.8,0.0,i,-0.2,0.686,-10.8%
